VDR inhibitor: Inhibitors of the vitamin D receptor (VDR): qHTS | Vitamin D3 receptor (Homo sapiens), P11473 | VDR-SRC2-3 peptide fluorescence polarization, 2 h | Potency, µM, without a hit: max response, negative = inhibition, most hits filed as inhibitors | hit rate 0.93% among 400,000 | AID 504847, 2011; active = well fitted inhibition curve with a large enough effect; inconclusive = small, poorly fitted or top-dose-only effect, or another doubt; inactive = no such curve, though single readings can be large or run the other way; note: series mostly up to about 120 µM
Target sequence (P11473 whole entry, looked up): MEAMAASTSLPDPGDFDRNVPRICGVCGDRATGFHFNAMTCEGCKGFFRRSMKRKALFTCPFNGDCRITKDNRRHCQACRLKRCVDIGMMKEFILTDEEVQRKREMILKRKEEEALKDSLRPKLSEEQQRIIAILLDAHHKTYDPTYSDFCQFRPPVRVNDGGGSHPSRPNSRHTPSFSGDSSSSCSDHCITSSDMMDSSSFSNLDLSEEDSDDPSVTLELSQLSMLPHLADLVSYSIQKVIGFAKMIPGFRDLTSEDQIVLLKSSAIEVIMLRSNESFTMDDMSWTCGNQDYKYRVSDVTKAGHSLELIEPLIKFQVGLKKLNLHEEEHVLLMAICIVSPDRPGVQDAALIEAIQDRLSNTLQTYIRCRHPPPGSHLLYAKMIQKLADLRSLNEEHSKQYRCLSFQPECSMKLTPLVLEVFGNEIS
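After 23 nl compound addition and a short centrifugation, plates sat for 2 hours at ambient temperature; polarization of fluorescence then indicated loss of VDR binding to peptide SRC2-3.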
* = called active by the depositor; u = inconclusive; & = joins results of further samples. % is set by controls: 0 for no effect and ±100 for the full control effect; potency is the fitted concentration of half-maximal effect. Some of the compounds tested (hit frequency here may not be typical).

The opening 7 records as a preview:
SMILES | VDR inhibitor
COc1cc(NC(=O)CN2CCN(c3ccccc3F)CC2)cc(OC)c1 | -6%
Cc1cccc(NC(=S)NCc2ccco2)c1C | -23%
CCOC(=O)c1ccc(NC(=O)COC)cc1 | -1%
O=[N+]([O-])c1cc(S(=O)(=O)Nc2cccc(Cl)c2)ccc1N=Nc1c(O)[nH]c2ccccc12 | 0%
Cc1cccc(C)c1N=Nc1c(C)cc(O)cc1C | 4%
O=C(/C=N/O)Nc1ccc2sc3ccccc3c2c1 | -5%
Cn1ncc2c(Nc3cccc(F)c3)ncnc21 | 15%

Main list, from the start:
SMILES | VDR inhibitor
COc1cc(NC(=O)CN2CCN(c3ccccc3F)CC2)cc(OC)c1 | -6%
Cc1cccc(NC(=S)NCc2ccco2)c1C | -23%
CCOC(=O)c1ccc(NC(=O)COC)cc1 | -1%
O=[N+]([O-])c1cc(S(=O)(=O)Nc2cccc(Cl)c2)ccc1N=Nc1c(O)[nH]c2ccccc12 | 0%
Cc1cccc(C)c1N=Nc1c(C)cc(O)cc1C | 4%
O=C(/C=N/O)Nc1ccc2sc3ccccc3c2c1 | -5%
Cn1ncc2c(Nc3cccc(F)c3)ncnc21 | 15%
CC1CC(C)(C)NC(=S)N1CCCC(=O)Nc1ccc(Br)cc1 (configuration not stated) | -10%
CCc1cccc(-n2nnc(S(=O)(=O)c3ccc(OC)cc3)c2C)c1 | -31%
CCOc1ccc(/C=N/NC(=O)Nc2ccccc2)cc1 | -5%
COc1ccc(CCCc2nnc(SCC(=O)Nc3ccc(C)cc3)o2)cc1C | 6%
CCOC(=O)N1CCN(CCC(=O)Nc2cccc(Br)c2)CC1 | -14%&-1%
Cc1ccc(S(=O)(=O)N2CCCCC2)cc1NC(=O)COC(=O)CN1C(=O)NC2(CC(C)CC(C)(C)C2)C1=O (configuration not stated) | 2%
CC(=O)NC(C)(CC(=O)c1ccccc1)c1ccccc1 (configuration not stated) | -16%
CC(=O)C1=C(O)C(=O)N(c2ccc(Br)cn2)C1c1ccc(F)cc1 (configuration not stated) | 14%
O=C(O)c1ccc(Cl)c(S(=O)(=O)NCC2CCCO2)c1 (configuration not stated) | -17%
COc1cc(C)c(Cl)c(C)c1S(=O)(=O)NC1CC(C)(C)NC(C)(C)C1 | -11%
CC(C)NC(=O)N1CC2(CCN(C(=O)c3cc(C(F)(F)F)cc(C(F)(F)F)c3)CC2)C1 | 0%
CC(/C=N/n1c(-c2ccc(Cl)cc2)n[nH]c1=S)=C\c1ccco1 | -14%
O=C(Oc1ccc(Cl)cc1)c1ccc2nccnc2c1 | -4%
COc1cc(S(=O)(=O)NCCOC23CC4CC(CC(C4)C2)C3)c(OC)cc1Cl | -11%
COc1cccc(/C=N/NC(=O)c2cc3cc([N+](=O)[O-])ccc3s2)c1O | -2%
CCNC(=S)N1CCc2cc(OC)c(OC)cc2C1COc1ccc(F)cc1 (configuration not stated) | -12%
CC(=O)Nc1ccc(S(=O)(=O)NCCC(=O)OCC(=O)c2cc(C)ccc2C)cc1 | -25%
O=C(CN1CCN(Cc2ccccc2)CC1)Nc1ccccc1-c1ccccc1 | -19%
Next section
SMILES | VDR inhibitor
COc1ccc(CNCCCSc2nnnn2C)c(OC)c1 | 24%
CCCCn1c(N)c(N(CC(C)C)C(=O)C2=COCCO2)c(=O)[nH]c1=O | -7%
CSc1nc2cc(Cl)ccc2s1 | 10%
N#Cc1ccc(CS(=O)(=O)c2ccccc2)cc1 | 4%
CCOC(=O)Cn1c(C)c(Br)c(=O)c2cccc(C)c21 | 0%
COc1ccc(CN2CCNC(=O)C2CC(=O)N(C)Cc2nccs2)cc1OC (configuration not stated) | 17%
CCOc1ccccc1NC(=O)CCc1c(C)nc2c(c(C)nn2-c2ccccc2)c1C | 1%
Cc1cccc(NC(=O)CCN2C(=O)C3C4C=CC(C4)C3C2=O)n1 (configuration not stated) | 0%
CCc1c(C)nc2c(OC)cccc2c1Cl | -11%
CC(NC(=O)c1ccc(Br)cc1)C(=O)NC1=NCCS1 (configuration not stated) | 11%
CC(=O)c1cccc(NC(=O)CCc2c(C)nc3c(c(C)nn3-c3ccccc3)c2C)c1 | 11%
CC[C@H](C)[C@H](NC(=O)[C@@H](NC(=O)CNC(=O)[C@@H](N)CC(C)C)[C@@H](C)O)C(=O)N1CCC[C@H]1C(=O)NCC(=O)O | 9%
COc1ccccc1NC(=O)CSc1nnc(CC(=O)Nc2ccccc2C)n1C | -6%
COC(=O)Nc1ccc(C)c(NC(=O)OC)c1 | 8%
O=C(NC12CC3CC(CC(C3)C1)C2)N1CCN(c2ccccn2)CC1 | -15%
CC1CN(c2nc3ccccc3nc2C(C#N)C(=O)NCc2ccc3c(c2)OCO3)CC(C)O1 (configuration not stated) | 0%
Cc1[nH]c(=O)[nH]c(=O)c1S(=O)(=O)N1CCOCC1 | -5%
CCOC(=O)CSc1nnc(CNC(=O)c2cccs2)n1CCc1ccccc1 | -8%
CC1CCCC(NC(=O)CSc2nccn2C)C1C (configuration not stated) | 6%
N#CC(=C1CCCC1)c1nc(-c2ccccc2O)cs1 | -6%
CCOc1ccc(C(=O)NC(=S)Nc2ccc(N3CCCCC3)cc2)cc1[N+](=O)[O-] | u
NNC(=O)[C@H](Cc1ccccc1)NC(=O)Nc1ccc2c(c1)OCCO2 | 4%
Cc1cc(Cl)cc(Br)c1OCCCCn1cncn1 | -8%
CCCCC(=O)N(c1ccc(OC)cc1)C1C=CS(=O)(=O)C1 (configuration not stated) | -9%
COc1cc(S(=O)(=O)N2CCOCC2)ccc1NC(=O)c1cc2c(s1)CCC2 | 6%
The listing continues:
SMILES | VDR inhibitor
Cc1cc(Cl)c2c(c1)[C@]1(C(=O)N2)[C@@H]2C(=O)N(Cc3ccccc3)C(=O)[C@@H]2[C@@H]2CCCN21 | 16%
CCCCCCCC1=Cc2ccc(F)cc2C(C(C(C)=O)C(=O)OC)N1C(=O)OC (configuration not stated) | -17%
O=S(=O)(NCc1ccccc1)NCc1ccccc1F | -1%
CC(=O)Nc1ccc(NC(=O)c2ccc(Cl)nc2)cc1 | -4%
O=C(NCCc1ccncc1)Nc1cccc(Cl)c1 | -13%
C/C(=N\NC(=O)c1cccc(Br)c1)c1ccc(Br)cc1 | 10%
NC(=O)c1c(NC(=O)CS(=O)(=O)c2ccc(Cl)cc2)sc2c1CCCCC2 | 6%
COC(=O)c1ccc(Cn2cnc3nc4c(cc3c2=O)CCCC4)cc1 | 10%
CC(=O)N1CCN(S(=O)(=O)c2cccc(C(=O)OCc3cccc(F)c3)c2)CC1 | -25%
CCOC(=O)C(=O)Nc1nccs1 | 4%
CN(C)C(CNC(=O)c1ccc2ccccc2n1)c1ccccc1 (configuration not stated) | 14%
COCCn1nnnc1C(c1ccc(C)cc1)N1CCN(Cc2ccc3c(c2)OCO3)CC1 (configuration not stated) | -11%
O=C(Nc1nc(SCc2ccc(F)cc2)ns1)c1ccco1 | 2%
C/C(=N\N(c1ccccc1)c1ccccc1)c1ccco1 | -1%
O=S1(=O)c2ccc(Br)cc2N2CCC[C@H]2CN1Cc1ccccc1 | 12%
CCCCC(=O)Nc1ccccc1N1CCN(c2ccc(F)cc2)CC1 | u
CC1(C)NC(=O)N(CC(=O)OCc2cc(=O)n3cc(Br)ccc3n2)C1=O | -3%
CC1CC(=O)NN=C1c1ccc(NCCO)c([N+](=O)[O-])c1 (configuration not stated) | 6%
O=C(Nc1ccc(S(=O)(=O)NCc2ccco2)cc1)c1ccc(F)cc1 | 30%
CCCC1=C(C(=O)OCC)C(c2sccc2C)n2ncnc2N1 (configuration not stated) | -26%
O=C(COC(=O)C1CC(O)CN1S(=O)(=O)c1ccc(Cl)cc1)c1ccccc1Cl (configuration not stated) | -5%
O=C(c1cccc(S(=O)(=O)N2CCCCC2)c1)N(CCc1ccccc1)Cc1ccccc1 | -17%
O=S(=O)(c1cccc(NC(=S)N2CCN(c3cccc(Cl)c3)CC2)c1)C(F)F | -6%
CCN(CC)C(=O)CC(c1ccc(N(C)C)cc1)c1c(OC)cc(OC)c2c(-c3ccccc3)cc(=O)oc12 (configuration not stated) | -25%&1%
COc1ccc(C(=O)Nn2c(SCc3ccc([N+](=O)[O-])cc3)nc3ccccc3c2=O)cc1 | 9%

In a second layout: entries from further up.
> CCCC1=C(C(=O)OCC)C(c2sccc2C)n2ncnc2N1 (configuration not stated)
  VDR inhibitor: -26%

> O=S(=O)(c1cccc(NC(=S)N2CCN(c3cccc(Cl)c3)CC2)c1)C(F)F
  VDR inhibitor: -6%

> O=C(COC(=O)C1CC(O)CN1S(=O)(=O)c1ccc(Cl)cc1)c1ccccc1Cl (configuration not stated)
  VDR inhibitor: -5%

> CCCCC(=O)Nc1ccccc1N1CCN(c2ccc(F)cc2)CC1
  VDR inhibitor: u

Additional entries.
SMILES | VDR inhibitor
CCC(C(=O)NC1CCCC1)N(C(=O)Cn1nnc(-c2ccc(C)o2)n1)C(C)(C)C (configuration not stated) | 2%
O=[N+]([O-])c1ccn(-c2nc(-c3cccs3)cc(C(F)(F)F)n2)n1 | -9%
O=C(NCc1ccco1)c1ccc(CS(=O)(=O)c2cccc(C(F)(F)F)c2)o1 | 9%
O=[N+]([O-])c1ccc(Nc2nc(N3CCOCC3)nc(N3CCOCC3)n2)cc1 | -7%
NCC(=O)N[C@@H](CCCN=C(N)N)C(=O)NCC(=O)N[C@@H](CC(=O)O)C(=O)N[C@@H](CO)C(=O)O | 6%
CCOC(=O)c1c(NC(=O)Nc2ccc(Cl)cc2)sc(C)c1C | -3%
CCOc1ccccc1N(CC(=O)NC1CCCC1)C(=O)CCC(=O)Nc1cc(C)on1 | 6%
COc1ccc(OC)c(-c2nc(Nc3ccccc3C)sc2CC(=O)O)c1 | -15%
COc1ccc(/C=C/C(=O)OCC(=O)N2CCN(S(=O)(=O)c3ccc(C)cc3C)CC2)cc1OC | -19%
Oc1cccc2c3c(oc12)CCCC3 | 14%
Cc1[nH]c2ccccc2c1C(=O)C(=O)N1CC(C)OC(C)C1 (configuration not stated) | 12%
Cn1cnnc1SCC(=O)Nc1ccc(Cl)c(S(=O)(=O)N2CCOCC2)c1 | -10%
CCCCN(C(=O)c1ccc(S(=O)(=O)N(C)c2ccccc2)cc1)c1c(N)n(CCC)c(=O)[nH]c1=O | -6%
O=S(=O)(c1cccc2ccccc12)N1CCN(c2nc(-c3cccs3)nc3ccccc23)CC1 | -3%
O=C(CSc1ccc2nnc(-c3ccccc3)n2n1)NCC1CCCO1 (configuration not stated) | 17%
O=C1c2ccccc2NC(c2ccccc2)N1Cc1ccco1 (configuration not stated) | -12%
CC(=O)c1cccc(OCC(=O)c2cc(C)n(-c3cc(C)on3)c2C)c1 | -16%
CC(C)(C)N(Cc1ccccc1)C(=O)COc1cccnc1[N+](=O)[O-] | 6%
COc1ccc(CCNC(=O)C(=O)NCC(c2cccs2)S(=O)(=O)c2ccc(C)cc2)cc1 (configuration not stated) | 7%
Cc1nn2c(-n3ccnc3)c3c(nc2c1-c1ccccc1)CCC3 | -10%
CCOC(=O)C1=CCC2c3c(c4ccccc4n3C)C(=O)C1N2C(=O)OC(C)(C)C (configuration not stated) | -16%
O=C(NCCc1ccc(Cl)cc1)c1cnc2n(c1=O)CCS2 | 14%
CCOC(=O)c1[nH]c2ccc(Br)cc2c1NC(=O)CCN1CCC(C)CC1 | -8%
Oc1cccc(C(Nc2nccs2)c2ccc3cccnc3c2O)c1 (configuration not stated) | -2%
COc1ccc(NC(=S)N2CCC(NC(=O)c3ccccc3C)CC2)cc1 | -1%

A few values from above.
O=S(=O)(NCc1ccccc1)NCc1ccccc1F in VDR inhibitor reads -1%
CCN(CC)C(=O)CC(c1ccc(N(C)C)cc1)c1c(OC)cc(OC)c2c(-c3ccccc3)cc(=O)oc12 (configuration not stated) in VDR inhibitor reads -25%&1%

More compounds.
SMILES | VDR inhibitor
c1csc(COc2ccccc2CNC2CCCCC2)c1 | -12%
COc1ccccc1-n1c(=O)c(C#N)c(-c2ccc([N+](=O)[O-])cc2)c2cc(C(=O)c3ccccc3O)cnc21 | -8%
O=C(O)c1cc(Br)ccc1NS(=O)(=O)c1cccc2nsnc12 | 2%
Cn1c(=O)c2c(ncn2CCOc2ccc(Br)cc2)n(C)c1=O | 1%
CN(C)S(=O)(=O)c1ccc2c(c1)N(CC(=O)NCc1ccccc1)C(=O)C1CCCCN21 (configuration not stated) | 1%
CCC(C)Sc1nc2c(c(=O)[nH]c(=O)n2C)n1Cc1ccccc1Cl (configuration not stated) | -11%
Cc1sc2ncnc(N3CCC(C(=O)Nc4ccc(F)cc4Cl)CC3)c2c1C | -12%
COc1ccc(NC(=O)CNS(=O)(=O)c2cccc3nonc23)c(OC)c1 | 3%
Cc1ccc(C)c(N2CCN(c3cnn(-c4nc5ccccc5s4)c(=O)c3Cl)CC2)c1 | -28%
CSc1ccc(C#N)cc1NC(=O)c1ccccc1C | 11%
O=C(COC(=O)CNC(=O)c1ccccc1)Nc1ccc(Cl)cn1 | -12%
COc1cc(CCC(=O)N2CCN(c3ccc([N+](=O)[O-])cc3)CC2)cc(OC)c1OC | 4%
CC(=O)c1ccc(NC(=S)N2c3ccccc3CC2C)cc1 (configuration not stated) | -6%
Cc1nc2cc(Cl)c([N+](=O)[O-])cc2s1 | -11%
Cc1ccc(S(=O)(=O)CCC(=O)OCC(=O)c2ccc(F)cc2)cc1 | -13%
COc1nccc(-c2ccc(F)cc2)c1C#N | -4%
Cn1ccnc1SCC(=O)c1ccc(F)cc1 | -4%
CC(C)(C)c1ccc(C(=O)N2CCN(CCNC(=O)C(=O)NCc3ccccc3)CC2)cc1 | 2%
C#CCOC(=O)C1C2C=CC(C2)C1C(=O)O (configuration not stated) | 12%
CC(C)(C)c1ccc(C(=O)Nc2sc3c(c2C#N)CCC(C(C)(C)C)C3)cc1 (configuration not stated) | -4%
COc1ccc(C2=NO[C@@H]3C(=O)N(c4c(C)cccc4C)C(=O)[C@H]23)cc1OC | 2%

Screening data (PubChem)
